# ClpP mod: qHTS Assay for Activators of ClpP | Potency, µM (titrated, usually from 57.5 µM), without a hit: top-dose activity change, negative = active | actives 1.9% (n = 340,000) | ATP-dependent Clp protease proteolytic subunit (Bacillus subtilis (strain 168)), P80244 | purified B. subtilis ClpP, FRET peptide cleavage, 20 min; active = well fitted falling curve with a large enough effect; inconclusive = small, poorly fitted or top-dose-only effect; inactive = no such curve, though single readings can be large or run the other way; further: potency means the concentration at half of the fitted maximal effect; the source files actives as falling curves though it sought activators and does not explain the sign; nearly all actives have a fitted effect of over 65% in size; many hits overshoot -100%
# Target sequence (P80244 whole entry, looked up): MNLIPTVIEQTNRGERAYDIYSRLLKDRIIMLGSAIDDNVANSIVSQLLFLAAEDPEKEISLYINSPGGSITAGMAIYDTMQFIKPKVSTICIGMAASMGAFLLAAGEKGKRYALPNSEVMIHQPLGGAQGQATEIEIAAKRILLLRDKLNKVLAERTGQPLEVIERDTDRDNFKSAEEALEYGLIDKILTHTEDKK
#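 FRET quenching reversal measured ClpP activation: 10 microg/mL B. subtilis ClpP at pH 8 with the FRET-FV decapeptide, read at 430 nm after 320 nm excitation. The 20-min minus 0-min signal was scaled between DMSO/no-enzyme wells and ADEP (5.8 microM final).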
# Menin-MLL FL inh: displaces fluorescein MLL peptide from human menin; Fluorescence polarization, fluorescein-MLL peptide displacement from menin; FP activity change, % at 61.4 µM; 290,000 tested, under 10 active; inconclusive = falling polarisation curve, or a change in total fluorescence; inactive = total fluorescence flat and polarisation flat or rising; no compound was filed as active; the % refers to the polarisation; negative = inhibition;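 further: % of control where 0% means no effect; inhibitors lower the polarisation; unlabelled MLL peptide was the positive control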
# Sfp PPTase inh: Sfp phosphopantetheinyl transferase inhibition | Q9F4F7 | Biochemical Sfp PPTase activity, qHTS | Potency, µM, for inactives: max response, negative = inhibition, usual class: inhibitors | actives 3.5% (n = 310,000); active means well fitted inhibition curve with a large enough effect; inconclusive means small, poorly fitted or top-dose-only effect, or another doubt; inactive means no such curve, though single readings can be large or run the other way;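 further: the enzyme is Sfp with the accession as filed and its product quenches rhodamine fluorescence; potency means the concentration at half of the fitted maximal effect; 0% = enzyme reaction without inhibitor and -100% = no enzyme wells; top concentration of the series not given in the record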
#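 After 15 min at room temperature with compound, 15 nM Sfp received 5 uM rhodamine-CoA plus 12.5 uM BHQ-2-ybbR (50 mM Hepes pH 7.6, 10 mM MgCl2). Rate came from the fluorescence difference over 30 min, ex 525/em 598 nm.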
# gsp agonist: activates gsp, the McCune-Albright syndrome mutation | Potency, µM (titrated, usually from 76.9 µM), without a hit: at the top dose activation (cAMP increase), hits mostly activators | gsp mutant cells, cAMP HTRF, 30 min; control for the full effect not named in the record | actives 0.13% (n = 340,000) | AID 624287; active = well fitted activation curve with a large enough effect; inconclusive = small, poorly fitted or top-dose-only effect, or another doubt; inactive = no such curve, though single readings can be large or run the other way; cell line not stated here;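 further: phosphodiesterase inhibitor Ro 20-1724 added with compounds to block cAMP breakdown; potency means the concentration at half of the fitted maximal effect; nearly all actives have a fitted effect of over 60% in size; about a fifth of the inactives were tested at one dose only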
#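 Cells in DMEM/10% FBS with G418 were pretreated with compounds in DMSO plus […] (300 uM stock) for 30 min at 37C. cAMP was measured by HTRF (cAMP-d2 plus anti-cAMP antibody-K) after 30 min at room temperature.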
# gsp antagonist: gsp mutant antagonism; Potency, µM (titrated, usually from 76.9 µM), inactives show at the highest dose activity change, negative = inhibition, hits mostly inhibitors; actives 0.4% (n = 340,000); AID 624288; gsp-mutant cells, cAMP HTRF, 30 min; control for the full effect not named in the record; active = falling curve of any shape with a large fitted effect; inconclusive = falling curve, mostly with a smaller effect; inactive = flat or rising curve; cell line not stated here;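 further: intracellular cAMP measured with PDE inhibitor Ro 20-1724 present during compound exposure; potency means the concentration at half of the fitted maximal effect; on the % scale 0 is the no-effect control and ±100 the full control effect; nearly all actives have a fitted effect of over 65% in size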
#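 Measurement of cellular cAMP by homogeneous time-resolved fluorescence following a 30 min compound exposure at 37C. The PDE inhibitor […] was present throughout; the assay buffer was DPBS with 0.05% BSA and 0.005% Tween 20.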
# TRPV1 potentiator: enhances activation of the human vanilloid receptor TRPV1; actives 0.02% (n = 320,000); potentiation, % at 8.33 µM; Q8NER1; AID 540277; TRPV1-expressing cells, Fluo-8 calcium influx, capsaicin EC20 potentiation; host cell line not named in the record; control for the full effect not named in the record; active means potentiation above 80%; inconclusive means 30% to 80%; inactive means below 30%; further: 0% is about no effect
#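 TRPV1-expressing cells were cultured overnight at 35.5C and loaded with Fluo-8 calcium dye for 40 to 90 min at room temperature. After a 10 s baseline, compound was added and calcium influx was read kinetically for 3 min (ex 480/em 520 nm).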
# D2 potentiator: positive allosteric modulators of human D2 dopamine receptor; potentiation, % (test concentration not listed); actives 0.23% (n = 360,000); P14416; DiscoveRx D2 beta-arrestin cells, luminescence, 90 min; 100% = 57 uM dopamine signal; active = potentiation of 50% or more; inconclusive = 30% to 50%; inactive = 30% or less;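 further: compound concentration not given in the record; tested on top of an EC20 dose of dopamine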
# Target sequence (P14416 whole entry, looked up): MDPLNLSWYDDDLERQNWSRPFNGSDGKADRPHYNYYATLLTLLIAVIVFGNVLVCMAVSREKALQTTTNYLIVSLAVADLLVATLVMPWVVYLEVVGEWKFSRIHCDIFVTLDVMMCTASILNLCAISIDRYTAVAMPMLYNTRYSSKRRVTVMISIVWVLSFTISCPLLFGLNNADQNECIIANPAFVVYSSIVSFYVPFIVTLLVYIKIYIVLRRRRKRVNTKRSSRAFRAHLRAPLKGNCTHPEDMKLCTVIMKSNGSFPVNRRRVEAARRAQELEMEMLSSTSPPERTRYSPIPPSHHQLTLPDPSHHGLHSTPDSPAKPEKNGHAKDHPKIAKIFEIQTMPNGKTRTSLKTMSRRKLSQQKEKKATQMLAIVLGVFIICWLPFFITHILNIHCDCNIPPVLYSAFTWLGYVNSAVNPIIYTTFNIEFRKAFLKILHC
#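 PathHunter beta-arrestin assay in DiscoveRx D2 cells. Compounds were added with an EC20 of dopamine (50 nM final) for 90 min at 37 deg C. Luminescence was read 1 h after detection reagent, with 57 uM dopamine as the EC100 control.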
# * = called active by the depositor; ? = inconclusive; . = no result given; & = joins results of further samples; [ ] = remark or other dose.
[1] CC(C)(C)c1cc(C(=O)NN)n(Cc2ccc(F)cc2)n1
[2] CC(=O)c1c(C)[nH]c(C(=O)Nc2cccc(S(=O)(=O)N3CCOCC3)c2)c1C
[3] O=C1/C(=C/c2ccc(F)cc2)SC(=S)N1Nc1ncc(C(F)(F)F)cc1Cl
[4] O=C(O)/C=C/C(=O)N(Cc1ccc2c(c1)OCO2)C1CC(=O)N(CCc2ccccc2)C1=O (stereo unspecified)
[5] CCOC(=O)c1csc(NC(=O)c2ccccc2)n1
[6] CCn1c(COc2ccccc2)nnc1SCC(=O)c1cccc([N+](=O)[O-])c1
[7] Cc1ccc(CSCC2Nc3ccc(C(=O)N4CCN(c5cccc(C)c5)C(C)C4)cc3NC2=O)cc1 (stereo unspecified)
[8] CC(Nc1n[nH]c(=O)[nH]c1=O)C(=O)N/N=C/c1ccccc1 (stereo unspecified)
assay / compound	1	2	3	4	5	6	7	8
ClpP mod	0.2%	-2.1%	0.7%	2.6%	0.7%	1.6%	.	-0.1%
Menin-MLL FL inh	0.1	3.0	3.7	-1.7	-1.5	0.7	?	2.2
Sfp PPTase inh	18%	-1%	50µM*	3%	9%	-2%	50µM*	15%
gsp agonist	-24%	?	-3%	12%	-33%[inhibitor]	-7%	.	-29%
gsp antagonist	-5%	5%	-5%	5%	2%	-11%	.	13%
TRPV1 potentiator	3	7	2	-29	4	-5	2	-4
D2 potentiator	6	-19	-2	-12	-1	8	.	-7

[9] CC12CN3CCN(CC(C3)/C1=N/N=C/c1cccc([N+](=O)[O-])c1)C2
[10] Cc1cc(N2CCCC2=O)ccc1S(=O)(=O)NCCOc1ccccc1
[11] O=C(CCC(=O)OCc1ccc(Cl)cc1)Nc1ccccc1
[12] COc1ccc(C2C(C(=O)/C=C/c3ccco3)=C(O)C(=O)N2CCN2CCOCC2)cc1OC (stereo unspecified)
[13] COc1ccc(/C=C(/NC(=O)c2ccccc2)C(=O)NCCN2CCOCC2)cc1OC
[14] COC(=O)[C@@]1(Cc2ccc(OC)cc2)[C@H]2c3cc(C(=O)N4CCCC4)n(Cc4ccc(Cl)c(C(F)(F)F)c4)c3C[C@H]2CN1C(=O)c1ccccc1
[15] CCO[C@@H]1OC(C(N)=O)=C[C@H](c2ccc3c(c2)OCO3)[C@H]1CCCO
[16] CN(C(=O)c1cc2nc(-c3ccco3)cc(C(F)(F)F)n2n1)C1CCCCC1
assay / compound	9	10	11	12	13	14	15	16
ClpP mod	.	.	0.6%	.	-1.9%	0.0%	-0.4%	-20%
Menin-MLL FL inh	7.0	0.2	0.4	?	.	17	0.9	?
Sfp PPTase inh	13%	9%	8%	?	15%	2%	19%	50µM*
gsp agonist	-13%[15.4 µM]	0%	6%	-32%[inhibitor]	-43%[inhibitor]	.	-13%	0%
gsp antagonist	6%	-18%	3%	-15%	5%	.	-1%	0%
TRPV1 potentiator	.	3	-27	17	9	.	6	-2
D2 potentiator	1	2	-4	0	-3	.	-5	-23

[17] O=C(NCc1ccccc1Cl)/C(=C\c1cccnc1)NC(=O)c1ccccc1
[18] O=C(NCC(c1ccco1)N1CCc2ccccc21)c1ccccc1 (stereo unspecified)
[19] CC(C)(C)C(=O)OCC1OC(n2cnc(C(N)=O)n2)C(O)C1O (stereo unspecified)
[20] CCNC(=O)N(C)C[C@H]1N[C@@](C)(C(=O)OC)[C@H]2C(=O)N(C)C(=O)[C@@H]12
[21] CCC(=O)N1c2ccc(S(=O)(=O)CCC(=O)NCc3ccc4c(c3)OCO4)cc2CC1C (stereo unspecified)
[22] COC(=O)CCC(NC(=O)c1cc(-c2ccc3c(c2)OCCO3)oc1C)C(=O)OC (stereo unspecified)
[23] Cn1c2ccccc2n2c(=O)c(=O)n(CC(=O)c3ccc(Cl)cc3)nc12
[24] S=C(NC1CCCCC1)N1CCOCC1
assay / compound	17	18	19	20	21	22	23	24
ClpP mod	.	.	4.1%	0.5%	-0.4%	-1.0%	0.2%	.
Menin-MLL FL inh	-2.4	.	-7.1	.	3.4	-0.2	1.9	-5.5
Sfp PPTase inh	19%	.	13%	.	-7%	35µM*	-4%	7%
gsp agonist	-2%[15.4 µM]	-6%[15.4 µM]	-20%	.	-24%	-32%[inhibitor]	-28%	-4%[15.4 µM]
gsp antagonist	11%	2%	14%	7%	-1%	5%	15%	13%
TRPV1 potentiator	-5	-12	-20	.	10	1	6	3
D2 potentiator	-12	-10	-8	-1	-8	4	13	-8

# 10 of these compounds in a different format:
# Under each structure: ClpP mod, Menin-MLL FL inh, Sfp PPTase inh, gsp agonist, gsp antagonist, TRPV1 potentiator, D2 potentiator
12	COc1ccc(C2C(C(=O)/C=C/c3ccco3)=C(O)C(=O)N2CCN2CCOCC2)cc1OC (stereo unspecified)
→ ., ?, ?, -32%[inhibitor], -15%, 17, 0
13	COc1ccc(/C=C(/NC(=O)c2ccccc2)C(=O)NCCN2CCOCC2)cc1OC
→ -1.9%, ., 15%, -43%[inhibitor], 5%, 9, -3
14	COC(=O)[C@@]1(Cc2ccc(OC)cc2)[C@H]2c3cc(C(=O)N4CCCC4)n(Cc4ccc(Cl)c(C(F)(F)F)c4)c3C[C@H]2CN1C(=O)c1ccccc1
→ 0.0%, 17, 2%, ., ., ., .
15	CCO[C@@H]1OC(C(N)=O)=C[C@H](c2ccc3c(c2)OCO3)[C@H]1CCCO
→ -0.4%, 0.9, 19%, -13%, -1%, 6, -5
16	CN(C(=O)c1cc2nc(-c3ccco3)cc(C(F)(F)F)n2n1)C1CCCCC1
→ -20%, ?, 50µM*, 0%, 0%, -2, -23
17	O=C(NCc1ccccc1Cl)/C(=C\c1cccnc1)NC(=O)c1ccccc1
→ ., -2.4, 19%, -2%[15.4 µM], 11%, -5, -12
18	O=C(NCC(c1ccco1)N1CCc2ccccc21)c1ccccc1 (stereo unspecified)
→ ., ., ., -6%[15.4 µM], 2%, -12, -10
19	CC(C)(C)C(=O)OCC1OC(n2cnc(C(N)=O)n2)C(O)C1O (stereo unspecified)
→ 4.1%, -7.1, 13%, -20%, 14%, -20, -8
20	CCNC(=O)N(C)C[C@H]1N[C@@](C)(C(=O)OC)[C@H]2C(=O)N(C)C(=O)[C@@H]12
→ 0.5%, ., ., ., 7%, ., -1
21	CCC(=O)N1c2ccc(S(=O)(=O)CCC(=O)NCc3ccc4c(c3)OCO4)cc2CC1C (stereo unspecified)
→ -0.4%, 3.4, -7%, -24%, -1%, 10, -8

# (more compounds)
[25] COCC(=O)N(Cc1cc2ccc(C)cc2[nH]c1=O)c1cccc(C)c1
[26] CC(=O)Nc1ccc(S(=O)(=O)NNC(=O)c2cccc(Cl)c2)cc1
[27] COc1ccc(NC(=O)CN2C(=O)NC3(CCCCCC3)C2=O)cc1Cl
[28] O=C(Nc1ccc(S(=O)(=O)Nc2ncccn2)cc1)c1cccc(S(=O)(=O)N2CCOCC2)c1
[29] O=C(NCc1ccc(Cl)cc1)N1CCN(Cc2ccccc2)CC1
[30] CCCCC(O)(c1ccc(CC)cc1)C(CN1CCOCC1)c1ccccc1 (stereo unspecified)
[31] CCOC(=O)C1=C(C)N(c2ccc(OCC)cc2)C(=O)/C1=C\c1ccco1
[32] N#CCCN(C(=O)COC(=O)c1cccc(S(=O)(=O)N2CCCC2)c1)c1ccc(F)cc1
assay / compound	25	26	27	28	29	30	31	32
ClpP mod	-7.1%	.	-4.4%	0.3%	-1.6%	1.2%	.	-0.4%
Menin-MLL FL inh	-3.3	-0.9	.	0.5	2.9	1.9	16	0.7
Sfp PPTase inh	8%	-26%	.	0%	4%	-21%	50µM*	24%
gsp agonist	?	-8%	-11%[15.4 µM]	30%	-25%	9%	-10%[15.4 µM]	?
gsp antagonist	4%	4%	3%	5%	3%	0%	?	-11%
TRPV1 potentiator	-1	-1	.	.	-11	-17	-5	-3
D2 potentiator	-3	-1	-21	-10	-49	-6	-1	-15

[33] NC(=O)Cn1nc([N+](=O)[O-])nc1Oc1ccc(Br)cc1
[34] C/C=C(\C)CN1CCC(n2nccc2NC(=O)c2ccc3c(c2)OCO3)CC1
[35] CCOC(=O)CNc1nc(Cl)nc(NC(C)(C)C)n1
[36] CCOc1ccc(N(CC(=O)NCc2ccc(Cl)cc2)S(=O)(=O)c2c(C)noc2C)cc1
[37] CCOC(=O)Cc1c(C)nc2c(-c3cccc(Br)c3)c[nH]n2c1=O
[38] Cc1cccc2c(N=NC(=O)c3ccc(NS(=O)(=O)c4cccs4)cc3)c(O)[nH]c12
[39] CCOc1ccc2nc(C(C)O)[nH]c2c1 (stereo unspecified)
[40] C=CCNC(=O)CN(c1ccc(F)cc1)S(=O)(=O)c1ccc(OC)cc1
assay / compound	33	34	35	36	37	38	39	40
ClpP mod	1.0%	-3.1%	.	1.2%&0.5%	14µM*	0.2%	0.0%	-0.8%
Menin-MLL FL inh	0.8	-3.9	-0.9	.	2.1	.	0.8	0.6
Sfp PPTase inh	12%	17%	23%	18%	10%	.	17%	4%
gsp agonist	-1%[15.4 µM]	?	-23%	-4%	6%	-3%	-13%	-17%
gsp antagonist	-8%	11%	7%	-10%	?	25µM*	11%	-14%
TRPV1 potentiator	?	5	-2	-8	-23	2	-8	-5
D2 potentiator	12	-47	8	-3	-16	-1	-10	-2

[41] CSc1ccc(C(=O)C2CCCN(C(=O)c3ccsc3)C2)cc1 (stereo unspecified)
[42] CCC(=O)N1CCN(c2ccc(NC(=O)c3ccc(Br)o3)cc2)CC1
[43] Cc1nc2ccccc2[nH]c1=O
[44] Cc1ccc(C2C(C(=O)c3sc(C)nc3C)=C(O)C(=O)N2CCCN(C)C)o1 (stereo unspecified)
[45] Cc1nn(-c2ccc(F)cc2)c(Cl)c1C(=O)OC(C)C(=O)N(C)C1CCCCC1 (stereo unspecified)
assay / compound	41	42	43	44	45
ClpP mod	-2.6%	-3.6%	3.8%	.	0.0%
Menin-MLL FL inh	2.7	1.7	5.6	0.0	.
Sfp PPTase inh	5%	5%	14%	-4%	.
gsp agonist	?	7%	-22%	.	2%
gsp antagonist	-3%	?	8%	.	-10%
TRPV1 potentiator	-4	2	5	11	-19
D2 potentiator	5	-4	-3	.	-3

# High-throughput results (PubChem)
